VDR inh – inhibitors of human vitamin D receptor; VDR-SRC2-3 peptide fluorescence polarization, 2 h; 400,000 tested, 0.93% active; Potency, µM, for the others: max response, negative = inhibition, actives largely listed as inhibitors; AID 504847; P11473; active means well fitted inhibition curve with a large enough effect; inconclusive means small, poorly fitted or top-dose-only effect, or another doubt; inactive means no such curve, though single readings can be large or run the other way; further: series mostly up to about 120 µM
Target sequence (P11473 whole entry, looked up): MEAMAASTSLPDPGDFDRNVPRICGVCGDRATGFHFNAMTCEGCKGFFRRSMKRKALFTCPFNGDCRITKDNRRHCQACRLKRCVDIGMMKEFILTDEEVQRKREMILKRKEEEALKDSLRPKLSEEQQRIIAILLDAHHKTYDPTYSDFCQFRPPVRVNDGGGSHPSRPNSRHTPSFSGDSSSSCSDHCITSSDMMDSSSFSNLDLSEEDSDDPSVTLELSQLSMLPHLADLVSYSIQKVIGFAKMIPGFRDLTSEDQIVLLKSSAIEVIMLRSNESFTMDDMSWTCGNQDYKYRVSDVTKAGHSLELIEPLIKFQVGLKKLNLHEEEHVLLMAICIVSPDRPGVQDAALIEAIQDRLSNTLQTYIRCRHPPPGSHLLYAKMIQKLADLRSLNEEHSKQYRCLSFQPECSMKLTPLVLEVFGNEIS
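Measured by FP: displacement of SRC2-3 coactivator peptide from VDR by library compounds, following a two-hour ambient incubation.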
Numbers without * were called inactive; ? = inconclusive; & = joins results of further samples; [ ] = another dose, or the depositor's remark. On the % scale 0 is the no-effect control and ±100 the full control effect; potency means the concentration at half of the fitted maximal effect.

SMILES	VDR inh
COc1ccc(C2C(C(=O)c3sc(C)nc3C)=C(O)C(=O)N2CCN(C)C)cc1OC (stereo not given)	0%
O=C(CCCCCN1C(=O)c2ccccc2C1=O)NC1CCCC1	-12%
Cc1ccc(NC(=O)CN(C)C(=O)Cc2ccc(Cl)cc2Cl)cc1	24%
CC1CC(=O)Nc2ccccc2S1(=O)=O (stereo not given)	-4%
COc1ccc(NC(=O)c2nnn(Cc3cccc(F)c3)c2N)c(OC)c1	-10%
CC(C)COc1ccc(-c2nnc(-c3ccco3)o2)cc1	-19%
CCOc1ccc(C(=O)Nc2ccc3c(c2)OCCO3)cc1Br	1%
CC1CC(C)(C)NC(=S)N1CC(=O)N(C)Cc1ccccc1 (stereo not given)	-5%
CCC(C)NCCCCOc1ccc(Br)cc1 (stereo not given)	-9%
Cc1ccc(NC(=O)CN(C)C(=O)COC(=O)/C=C/c2cccs2)cc1	-11%
Cc1ccc2[nH]c(=O)c(-c3nc4cc(C)ccn4c3NCc3ccco3)cc2c1	6%
Cc1cccc(OCC(=O)Nc2ccc(N3CCN(C(=O)c4ccco4)CC3)cc2)c1	2%
O=C(c1cscn1)N1CCCC(N2CCN(c3ccc(F)cc3)CC2)C1 (stereo not given)	6%
Cc1cc(C)c(NC(=O)Cn2c(=O)n(-c3ccc(CC(=O)NCC4CCCO4)cc3)c(=O)c3ccccc32)c(C)c1 (stereo not given)	-11%&3%
CCc1cccc(NC(=O)Cn2c(=O)oc3cc(S(=O)(=O)N4CCOCC4)ccc32)c1	-13%
CCOc1ccc(NC(=O)Cn2c(=O)nc(-c3ccccc3)c3ccccc32)cc1	10%
CCn1c(SCC(=O)c2c[nH]c3ccccc23)nnc1-c1cccs1	5%
COc1ccc(Cc2nnc(Nc3ccc(C)cc3)o2)cc1OC	-14%
Cc1cc(C)cc(NC(=O)c2sc3nc4n(c(=O)c3c2C)N=C(c2ccccc2)CS4)c1	7%
O=C(Cn1c(NCCCO)nc2ccccc21)c1ccc([N+](=O)[O-])cc1	18%
COc1ccc(CCNC(=O)c2sc3nc4n(c(=O)c3c2C)CCCC4)cc1OC	4%
O=P(O)(O)c1ccccc1OCCOCCOCCOCCOc1ccccc1P(=O)(O)O	-7%
COC(=O)c1c(-c2ccc(Cl)cc2)noc1N1CCN(c2ccc(C)cc2C)CC1	-6%
O=C(O)c1c2c(nc3ccc(S(=O)(=O)N4CCC(C(=O)NC5CCCCCC5)CC4)cc13)CCCC2	-9%
COc1ccc(/C=N/NC(=O)c2c(-c3ccccc3)noc2C)cc1[N+](=O)[O-]	19%
Fc1cc(Br)ccc1NC(=S)NCCc1ccccc1	-9%
O=C(/C=C/c1ccc(Cl)c(Cl)c1)N1CCOCC1	-13%
CCOc1ccc(S(=O)(=O)N2CCN(C(=O)c3ccco3)CC2)cc1	-7%
Cc1ccc(OCCCn2c(CO)nc3ccccc32)cc1	-4%
COc1cc(C(CCN2CCN(c3ccccc3)CC2)c2c(OC)cc(OC)c3c(C)cc(=O)oc23)cc(OC)c1OC (stereo not given)	-16%&6%
Cc1nc(NC(C)c2ccccc2)c2c3c(sc2n1)CCC3 (stereo not given)	6%
Fc1ccc(NC(=S)N2CCc3ccccc32)cc1	-9%
CCCNC(=O)c1ccc2c(=O)c(O)c(-c3ccc(F)cc3)[nH]c2c1	-15%
O=C(Nc1ccc(N2CCCC2)cc1)c1ccccc1[N+](=O)[O-]	-17%
O=C(O)CC(C(=O)OCC1CCCO1)N1CCOCC1 (stereo not given)	-13%
O=C(COc1ccccc1Cl)Nc1nnc(S(=O)(=O)N2CCCC2)s1	-1%&16%
COc1ccc(C(=O)Nc2nc(CC(=O)NCCc3cccc(OC)c3)cs2)cc1	6%
Cc1ccc(S(=O)(=O)N2CCN(Cc3cc(C(C)(C)C)ccc3O)CC2)cc1	-5%
CCOC(=O)CP(=O)(c1ccccc1)c1ccccc1	10%
N#CCCCCN1CCCC1	-13%
CCOc1ccc(N2CC(c3nc4ccccc4n3CCOc3ccccc3OC)CC2=O)cc1 (stereo not given)	11%
COc1cccc(NS(=O)(=O)c2cn(C)c(=O)n(C)c2=O)c1	-10%
CCN1C(=O)c2ccccc2Sc2ccc(C(=O)NCCCN3CCCCC3)cc21	2%
CCOC(=O)c1sc(C)c(C(=O)NCC(C)(C)CN(C)C)c1N	-5%
O=S(=O)(c1ccc(F)cc1)N1CCN(Cc2ccccn2)CC1	16%
Cn1c(NC(=O)c2cccs2)c(-c2cccs2)c(=O)c2ccccc21	-1%
O=C(CCS(=O)(=O)c1ccccc1Cl)NC1CCCCCC1	0%
O=C(NCc1ccccc1)c1cccnc1	?
Cn1nnnc1SCC(=O)NCc1ccccc1	8%
COc1ccc(C(=S)N2CCOCC2)cc1OC(=O)c1ccccc1	-10%
CC1CCN(C(=O)/C(=C\c2ccccc2)NC(=O)c2ccccc2)CC1	-25%
O=C(COC(=O)c1cc(Cl)nc(Cl)c1)Nc1ccc(Cl)c(S(=O)(=O)N2CCOCC2)c1	13%
COC(=O)c1cc(=O)n(Cc2ccc3c(c2)OCO3)c(=Nc2ccc(F)c(Cl)c2)s1	-4%
Cc1ccc(NC(=O)CN2C(=O)C(=O)N(C3CCCC3)C2=O)cc1Cl	6%
CCOC(=O)c1c(C)oc2nc(C)nc(NCc3ccccc3Cl)c12	10%
COc1ccc(NS(=O)(=O)c2ccc3c(c2)n(C)c(=O)c(=O)n3C)cc1Cl	11%
COc1ccccc1NS(=O)(=O)c1c(C(=O)N2CCCC2)c(C)n(C)c1C	-27%
O=C(NCc1ccco1)C1CCCN1S(=O)(=O)c1ccc2ccccc2c1 (stereo not given)	5%
O=C(NCCCN1CCOCC1)C(=O)N/N=C/c1ccccc1O	23%
CCOC(=O)c1c(C)[nH]c(C(=O)Cn2nnc(-c3ccccc3)n2)c1C	-9%

Taken from the listing for reference:
SMILES	VDR inh
CCOc1ccc(N2CC(c3nc4ccccc4n3CCOc3ccccc3OC)CC2=O)cc1 (stereo not given)	11%
COc1cccc(NS(=O)(=O)c2cn(C)c(=O)n(C)c2=O)c1	-10%
CCN1C(=O)c2ccccc2Sc2ccc(C(=O)NCCCN3CCCCC3)cc21	2%
CCOC(=O)c1sc(C)c(C(=O)NCC(C)(C)CN(C)C)c1N	-5%
O=S(=O)(c1ccc(F)cc1)N1CCN(Cc2ccccn2)CC1	16%
Cn1c(NC(=O)c2cccs2)c(-c2cccs2)c(=O)c2ccccc21	-1%

Remaining list, next part:
SMILES	VDR inh
CC(=O)c1ccc(OC(=O)COc2ccccc2Cl)cc1	?
Cn1c(CNC(=O)c2ccccc2F)nnc1SCC(=O)Nc1nnc(C2CC2)s1	-3%
COc1ccc(CNn2c(-c3ccccc3F)nc3ccccc3c2=O)cc1OC	14%
O=C1CC(N2CCN(c3ccccc3)CC2)C(=O)N1CCc1ccccc1 (stereo not given)	16%
CCN=C1S/C(=C\c2ccc(O)c(OCC)c2)C(=O)N1CC	7%
CCCCC(CC)CNC(=O)c1cccs1 (stereo not given)	-25%
CC(C)C(=O)N(Cc1ccc2c(c1)OCO2)Cc1ccccn1	-5%
Cc1ccccc1NC(=O)c1cn2c(nc3ccccc32)c(C#N)c1C	0%
Cc1cccc(OCC(O)Cn2c(N3CCCCC3)nc3c2c(=O)n(C)c(=O)n3C)c1 (stereo not given)	-9%
Cc1cc(C)c(S(=O)(=O)N2CCN(C(=O)c3ccc(-n4cncn4)c([N+](=O)[O-])c3)CC2)c(C)c1	-3%
CNC(=S)SCCOc1ccccc1	-21%
CC1CCCCC12NC(=O)N(CC(=O)NCCc1ccc(S(N)(=O)=O)cc1)C2=O (stereo not given)	-1%
Cc1ccc(NC(=O)COC(=O)CNC(=O)C2CCCCC2)cc1S(=O)(=O)N(C)C	-7%
COc1cccc(C(=O)Nc2cccc(-c3ccccc3)c2)c1	?
COc1ccc(OCC(=O)NC2CC(=O)N(c3cccc(OC)c3)C2)cc1 (stereo not given)	4%
Cc1nc2ccccc2n1CC(=O)OCC(=O)Nc1ccc2c(c1)OCCO2	-2%
O=S(=O)(NCCCN1CCOCC1)c1ccc(Cl)s1	?
COc1nc(N)c(S(=O)(=O)c2ccccc2C)cc1C#N	-5%
Cc1ccsc1C(=O)Nc1ccccc1N1CCOCC1	?
Cc1c(C)c(C)c(S(=O)(=O)NCCC(=O)N2CCN(Cc3ccc(C#N)cc3)CC2)c(C)c1C	-3%
CC(C)c1ccc(NC(=O)CSC2=Nc3ccccc3C3=NC(CC(=O)NCc4ccco4)C(=O)N23)cc1 (stereo not given)	-3%
O=c1c([N+](=O)[O-])cccn1Cc1ccc(F)cc1Cl	5%
CCOC(=O)N1CCN(C(=O)C(=O)N/N=C/c2ccc(OC)cc2OC)CC1	5%
Cc1cccc2cc(CN(CC(C)C)S(=O)(=O)c3ccccc3)c(=O)[nH]c12	-11%
CCN(CC(=O)Nc1c(F)cccc1F)C(=O)C1COc2ccccc2O1 (stereo not given)	2%
O=C(Cn1cc(C(=O)c2cccs2)c2ccccc21)NCc1cccs1	14%
CCOCCCNC(=O)C1CCCN1C(=O)NC1CCCCC1 (stereo not given)	-2%
COc1ccc(-c2cn3c(C)c(C(=O)NC(C)(C)C)sc3n2)cc1	-8%
CCOC(=O)c1ccc(NC(=O)Nc2c(C)n(C)n(-c3ccccc3)c2=O)cc1	3%
O=C(CCC1CCCC1)Nc1cccc(Cc2ccncc2)c1	-19%
Nc1nc(Br)c2ccccc2c1-c1ccc(F)cc1	1%
COc1cccc(C2CC(c3ccccc3)n3ncnc3N2)c1 (stereo not given)	1%
CN(CC(=O)Nc1ccccc1C(F)(F)F)C(=O)COc1cccnc1[N+](=O)[O-]	-7%
Cc1ccc(S(=O)(=O)NCCCn2ccnc2)cc1C(=O)NC(C)C	?
CC(C)(C)c1ccccc1NC(=O)CN1C(=O)NC(Cc2ccccc2)C1=O (stereo not given)	0%
Cc1ccc(NC(=O)CCC(=O)NNC(=O)COc2ccc([N+](=O)[O-])cc2)c(C)c1	10%
CC(C)(C)C(=O)CNS(=O)(=O)c1ccc(S(=O)(=O)NC2CCCC2)cc1	-8%
O=C(NCCN1CCOCC1)c1cccc(S(=O)(=O)N2CCCCCC2)c1	8%
Clc1ccc(Cn2ncc3c(N4CCCC4)ncnc32)cc1	10%
CC1CCN(CC(C)OC(=O)c2ccc3c(c2)OCCO3)CC1 (stereo not given)	-8%

Copied from the list:
In VDR inh, `CCOC(=O)N1CCN(C(=O)C(=O)N/N=C/c2ccc(OC)cc2OC)CC1` has 5%
In VDR inh, `CC(C)(C)C(=O)CNS(=O)(=O)c1ccc(S(=O)(=O)NC2CCCC2)cc1` has -8%
In VDR inh, `O=c1c([N+](=O)[O-])cccn1Cc1ccc(F)cc1Cl` has 5%
In VDR inh, `CC(C)c1ccc(NC(=O)CSC2=Nc3ccccc3C3=NC(CC(=O)NCc4ccco4)C(=O)N23)cc1` (stereo not given) has -3%
In VDR inh, `COc1ccc(-c2cn3c(C)c(C(=O)NC(C)(C)C)sc3n2)cc1` has -8%

Next compounds follow.
SMILES	VDR inh
O=c1ccn(C2OC(COP(=O)(O)OP(=O)(O)OP(=O)(O)O)C(O)C2O)c(=O)[nH]1 (stereo not given)	-6%
O=C(Cc1ccc(F)cc1)Nc1nnc(-c2ccc(F)cc2)o1	15%
OC(C[n+]1ccccc1)c1ccccc1 (stereo not given)	-4%
Cc1nc(CCNC(=O)C2CCC(=O)N(Cc3ccc(Cl)cc3)C2)sc1C (stereo not given)	11%
CCOC(=O)c1cc(S(=O)(=O)NCc2ccc(C)cc2)[nH]n1	8%
CC(=O)Nc1ccc(S(=O)(=O)NC(C)C(=O)OCC(=O)NC2CCCC2)cc1 (stereo not given)	-8%
O=C1CCCN1CCC1CCCCN1Cc1nc(-c2cnccn2)no1 (stereo not given)	2%
CCCN(C(=O)COC(=O)CSc1ccc([N+](=O)[O-])cc1)C1CCS(=O)(=O)C1 (stereo not given)	89µM*
COc1ccccc1OCC(=O)NNC(=O)c1ccc(F)c(S(=O)(=O)N2CCOCC2)c1	-6%
C/C(=N/NC(=O)CN1CCN(S(=O)(=O)c2ccc(Br)cc2)CC1)c1ccco1	-25%
CCCCn1c(N)c(N(CCOC)C(=O)c2oc3ccc(OC)cc3c2C)c(=O)[nH]c1=O	4%
O=C(NCc1ccc2c(c1)OCO2)C(=O)NCC1OCCN1S(=O)(=O)c1ccc(Br)cc1 (stereo not given)	51%[activator]
CC(C)c1cc(C(=O)NC2CCCc3c2cnn3-c2ccccc2F)no1 (stereo not given)	-14%
N#CC1CC(c2ccc([N+](=O)[O-])cc2)=NN1c1ccc([N+](=O)[O-])cc1 (stereo not given)	4%
CC1CCCCC1NC(=S)NC(=O)c1cccs1 (stereo not given)	13%
O=S(=O)(NCCc1ccc2c(c1)OCCO2)c1cccs1	17%
CCCCN(C)CCNC(=O)c1cc2c(=O)[nH]c3ccccc3c2n1C	-13%
CCC(Sc1nc2ccc(C)cc2[nH]1)C(=O)O (stereo not given)	-12%
O=C(C1CC=CCC1)N1CCC(CO)(Cc2ccc(Cl)cc2)CC1 (stereo not given)	4%
O=C(NCCN1CCCCC1)/C(=C/c1ccco1)NC(=O)c1ccccc1	14%
O=CN1N=C(c2ccccc2)CC1c1ccccc1[N+](=O)[O-] (stereo not given)	34%[activator]

2 records drawn at random from the list so far, as already listed:
SMILES	VDR inh
O=C(Cc1ccc(F)cc1)Nc1nnc(-c2ccc(F)cc2)o1	15%
Cc1cc(C)cc(NC(=O)c2sc3nc4n(c(=O)c3c2C)N=C(c2ccccc2)CS4)c1	7%

Bioassay records (PubChem BioAssay)

The list is partial (hit frequency here may not be typical).
